From PubChem BioAssay
TRPV1 PAM: potentiators of human vanilloid receptor 1 (TRPV1); 320,000 compounds, 0.02% hits; potentiation, % at 8.33 µM; Q8NER1; AID 540277; TRPV1-expressing cells, Fluo-8 calcium influx, capsaicin EC20 potentiation; host cell line not named in the record; control for the full effect not named in the record; active means potentiation above 80%; inconclusive means 30% to 80%; inactive means below 30%; also: 0% is about no effect
Target sequence (Q8NER1 whole entry, looked up): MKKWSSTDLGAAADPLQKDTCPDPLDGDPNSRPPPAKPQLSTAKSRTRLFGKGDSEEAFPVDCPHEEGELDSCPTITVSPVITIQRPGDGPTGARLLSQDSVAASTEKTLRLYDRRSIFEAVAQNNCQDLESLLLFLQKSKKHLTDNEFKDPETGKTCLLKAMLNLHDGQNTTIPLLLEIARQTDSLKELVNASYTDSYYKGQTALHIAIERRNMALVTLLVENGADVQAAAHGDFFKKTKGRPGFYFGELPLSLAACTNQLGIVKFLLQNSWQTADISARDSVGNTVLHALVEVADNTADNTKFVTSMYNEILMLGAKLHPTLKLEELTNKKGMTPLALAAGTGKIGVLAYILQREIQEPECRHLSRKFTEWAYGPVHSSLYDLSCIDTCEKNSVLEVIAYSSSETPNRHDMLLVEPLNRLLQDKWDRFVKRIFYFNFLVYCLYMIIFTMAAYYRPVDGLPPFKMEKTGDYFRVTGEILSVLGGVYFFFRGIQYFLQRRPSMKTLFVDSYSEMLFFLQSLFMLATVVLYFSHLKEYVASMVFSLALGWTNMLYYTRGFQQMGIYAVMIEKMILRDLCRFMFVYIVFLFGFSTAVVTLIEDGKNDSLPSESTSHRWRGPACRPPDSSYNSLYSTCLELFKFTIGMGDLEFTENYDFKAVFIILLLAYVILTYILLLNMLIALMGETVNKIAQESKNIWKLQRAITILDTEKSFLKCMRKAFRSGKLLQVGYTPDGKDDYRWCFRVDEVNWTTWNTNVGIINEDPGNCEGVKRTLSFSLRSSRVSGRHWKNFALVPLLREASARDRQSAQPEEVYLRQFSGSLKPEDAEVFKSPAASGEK
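TRPV1-expressing cells were cultured overnight at 35.5C and loaded with Fluo-8 calcium dye for 40 to 90 min at room temperature. After a 10 s baseline, compound was added and calcium influx was read kinetically for 3 min (ex 480/em 520 nm).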
Sfp inh: blocks B. subtilis Sfp PPTase activity | Q9F4F7 | Biochemical Sfp PPTase activity, qHTS | Potency, µM, for inactives: max response, negative = inhibition, usual class: inhibitors | 310,000 compounds, 3.5% hits | AID 1490; active = well fitted inhibition curve with a large enough effect; inconclusive = small, poorly fitted or top-dose-only effect, or another doubt; inactive = no such curve, though single readings can be large or run the other way;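 also: the enzyme is Sfp with the accession as filed and its product quenches rhodamine fluorescence; potency is read from the fitted curve at half-maximal effect; 0% = enzyme reaction without inhibitor and -100% = no enzyme wells; top concentration of the series not given in the record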
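With Hepes-Na pH 7.6 buffer containing 10 mM MgCl2, Sfp (15 nM) modified BHQ-2-YbbR (12.5 uM) using rhodamine-CoA (5 uM). Two reads 30 minutes apart at 525/598 nm yielded each well's rate.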
PINK1 modulator: PINK1 expression modulation; PINK1 immunofluorescence, high-content cytometry, 24 h; Potency, µM (doses to about 76.6 µM), inactives show at the top dose activation (PINK1 increase), most hits filed as activators; 410,000 compounds, 0.2% hits; active = well fitted activation curve with a large enough effect; inconclusive = small, poorly fitted or top-dose-only effect; inactive = flat fitted curve, though single readings scatter; cell line not stated here;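 also: potency is read from the fitted curve at half-maximal effect; % of control where 0% means no effect; nearly all actives have a fitted effect of over 65% in size; a mitochondrial uncoupler was the plate control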
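Stable cell line, 250 cells/well, 12 h attachment; compounds pinned at 5 concentrations, 24 h; CCCP control. Fixed with nuclear dye, primary antibodies 12 h at 10 degrees C, secondary plus cell stain; laser-scanning cytometer read.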
TRPML1 inh: inhibitors of human TRPML1 channel | TRPML1-inducible cells, Ca2+ dye fluorescence, FDSS; active compounds read low; inhibition of EC80 agonist-evoked calcium signal | activity change, negative = inhibition, % (no concentration beside the values) | 390,000 compounds, 0.02% hits | AID 624415; in the data active means activity change below about -50%; inconclusive means about -30% to -50%; inactive means above about -30%;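 also: stimulus is agonist 54-4 at its EC80 concentration; % is scaled to controls: 0 for no effect and ±100 for the full control effect; compound concentration not given in the record; the text of the record puts the active cut at -80%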
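TRPML1-DL cells, Tet-induced overnight (~16 h, 37 °C) at 1,500 cells/well, were loaded with Ca8 no-wash dye plus quencher for 45-90 min at room temperature. Compounds were pinned during FDSS kinetic reading; agonist 54-4 at EC80 (4 uM final) then added.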
ClpP mod: qHTS Assay for Activators of ClpP; 340,000 compounds, 1.9% hits; ATP-dependent Clp protease proteolytic subunit (Bacillus subtilis (strain 168)), P80244; Potency, µM (highest dose often 57.5 µM), without a hit: at the top dose activity change, negative = active; purified B. subtilis ClpP, FRET peptide cleavage, 20 min; active = well fitted falling curve with a large enough effect; inconclusive = small, poorly fitted or top-dose-only effect; inactive = no such curve, though single readings can be large or run the other way; also: potency is read from the fitted curve at half-maximal effect; the source files actives as falling curves though it sought activators and does not explain the sign; nearly all actives have a fitted effect of over 65% in size; many hits overshoot -100%
Target sequence (P80244 whole entry, looked up): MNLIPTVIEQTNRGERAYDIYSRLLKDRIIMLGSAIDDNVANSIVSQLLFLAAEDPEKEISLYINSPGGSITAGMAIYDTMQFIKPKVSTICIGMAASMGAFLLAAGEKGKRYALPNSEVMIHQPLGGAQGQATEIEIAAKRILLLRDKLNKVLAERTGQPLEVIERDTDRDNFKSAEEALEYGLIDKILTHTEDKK
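FRET quenching reversal measured ClpP activation: 10 microg/mL B. subtilis ClpP at pH 8 with the FRET-FV decapeptide, read at 430 nm after 320 nm excitation. The 20-min minus 0-min signal was scaled between DMSO/no-enzyme wells and ADEP (5.8 microM final).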
TRPML1 ag: agonists of human TRPML1 channel; Q9GZU1; TRPML1-expressing cells, Ca2+ dye fluorescence, FDSS; host cell line not named in the record; reference of the full effect not given here; activation, % (concentration not given with the values); 410,000 compounds, 0.12% hits; in the data active = activation above about 50%; inconclusive = about 30% to 50%; inactive = below about 30%; also: 0% is about no effect; the text of the record puts the active cut at 80%
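In this qHTS format, compounds were pin-transferred onto Ca8-dye-loaded TRPML1-DL cells induced with Tet overnight, and intracellular Ca2+ fluorescence was recorded kinetically for 110 s after a 10 s baseline. A subsequent 4uM final 54-4 (EC80) addition followed by a second 110 s read served as the antagonist phase.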
Menin-MLL FL inh: inhibitors of human menin-MLL interaction, wild-type MLL peptide | 290,000 tested, under 10 active | AID 1766 | FP activity change, % at 61.4 µM | Fluorescence polarization, fluorescein-MLL peptide displacement from menin; inconclusive = falling polarisation curve, or a change in total fluorescence; inactive = total fluorescence flat and polarisation flat or rising; no compound was filed as active; the % refers to the polarisation; negative = inhibition;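 also: % of control where 0% means no effect; inhibitors lower the polarisation; unlabelled MLL peptide was the positive control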
An asterisk follows results filed as active; ? = inconclusive; · = no result given; & = joins results of further samples; ! = not confirmed by another sample; [ ] = remark or other dose.

Each structure is followed by: TRPV1 PAM	Sfp inh	PINK1 modulator	TRPML1 inh	ClpP mod	TRPML1 ag	Menin-MLL FL inh
- Cc1cc(C(=O)N2CCCC(Nc3ccc(F)cc3)C2)n(C)n1 (configuration not stated)
→ 15	10%	2.1%	9	1.7%	-0.2	1.7
- CCC1CSC(Nc2ccc(C(=O)/C=C/c3ccc(Oc4ccccc4)cc3)cc2)=N1 (configuration not stated)
→ 1	-16%	4.2%	5	1.3%	3.9	3.5
- O=c1nc(-c2ccccc2)n(-c2ccccc2)c2ncccc12
→ -6	18%	·	7	-1.0%	0.4	0.3
- CCCCN(CC)CCNC(=O)c1cc2c(-c3ccccc3F)nn(C)c2s1
→ -14	-6%	-0.3%	·	3.8%	·	-20
- O=S(=O)(c1ccccc1)N1CCC(O)(CSc2ccc(F)cc2)CC1
→ 16	15%	0.1%	3	·	0.7	0.5
- CN1CCN(C(=O)c2ccc(CNS(=O)(=O)c3cccc(Cl)c3)cc2)CC1
→ 2	12%	0.7%	-7	-0.9%	0.1	·
- COc1ccc2c(C=Nc3c(C)n(C)n(-c4ccccc4)c3=O)c(O)n(Cc3ccco3)c(=O)c2c1
→ -17&-10	-3%&9%	-0.6%&0.3%	0&6	-0.8%&0.3%	1.9&0.9	?
- CCCCCn1c(=N)c(S(=O)(=O)c2ccc(C)cc2)cc2c(=O)n3cc(C)ccc3nc21
→ ·	·	6.0%	-1	1.0%	1.4	·
- CC1CCN(CCC(=O)Nc2ccccc2)CC1
→ -2	6%	-1.1%	14	·	-0.1	-3.2
- CC(=O)c1ccc(OCc2cc(C(=O)N3CCC(c4ccncc4)CC3)no2)cc1
→ 0	11%	3.4%	-1	4.6%	1.1	-0.4
- C[C@H](CO)N1C[C@H](C)[C@@H](CN(C)C(=O)NC2CCCCC2)Oc2c(NS(=O)(=O)c3cccs3)cccc2C1=O
→ ·	·	-1.0%	3	-0.6%	-0.6	·
- Cc1ccc(C)c(N2CCN(S(=O)(=O)c3ccc(-c4ccc(=O)[nH]n4)o3)CC2)c1
→ -6	7%	-0.3%	-5	·	-0.4	-1.5
- O=C1NC(=O)/C(=C\c2ccsc2)N1
→ -2	8%	1.2%	32	·	0.0	2.6
- O=C(CCc1nc2ccccc2s1)NCc1ccccc1F
→ -30	-18%	1.7%	-16	-4.4%	-0.3	3.5
- COCCNc1ncnc2ccc(-c3cccc(NS(C)(=O)=O)c3)cc12
→ ·	17%	0.9%	·	·	·	1.6
- O=C(c1cnn2c(C(F)(F)F)cc(-c3cccs3)nc12)N1CCN(C(c2ccccc2)c2ccccc2)CC1
→ -10	5%	2.1%	3	-8.6%	16	0.5
- O=C(O)CN1C(=O)NC2(CCOc3ccccc32)C1=O (configuration not stated)
→ -12	16%	-1.0%	-3	-0.6%	1.0	-0.5
- COc1ccc(OCCCN2CCc3ccccc3C2)cc1
→ 1	3%	3.6%	0	·	0.2	0.3
- CCOc1ccc(N(CC(=O)Nc2cccc(Br)c2)S(C)(=O)=O)cc1
→ 0	14%	0.8%	-23	-1.6%	0.7	-0.3
- CCCCCc1ccc(-c2cn(Cc3cccc(OC)c3)nn2)cc1
→ -8	10%	4.7%	-5	-1.6%&1.8%	0.7&0.4	-5.5
- O=[N+]([O-])c1ccc(O)c(Nc2ncnc3ccc(Br)cc23)c1
→ 1	7%	?	-23	·	-0.3	0.1
- CC1=Nc2ccccc2/C1=C/c1c(N)n2c(S(=O)(=O)C(C)C)nsc2nc1=O
→ -5	-7%	0.0%	4	·	0.8	-2.8
- Cc1ccc2c(CN3CCN(C(=O)c4ccco4)CC3)cc(=O)oc2c1C
→ 0	-16%	0.7%	8	-1.7%	-0.2	0.3
- O=C1C=C(c2n[nH]nc2-c2ccccc2)C[C@@H](c2ccc(F)cc2)C1
→ ·	·	0.8%	-11	-1.0%	-0.2	·
- C#CCNC(=O)C1=C[C@@H](c2ccc(C#C)cc2)[C@H](CCCO)[C@@H](OCC)O1
→ 1	-2%	1.7%	-5	-2.6%	0.7	3.8
- Nc1cccc(-n2nncc2-c2ccc(Cl)cc2)c1
→ 22	7%	·	·	·	·	2.0
- O=C(CC1N=C2c3ccccc3N=C(SCc3ccc(Cl)cc3)N2C1=O)NCCc1ccccc1 (configuration not stated)
→ ·	·	0.2%	-19	4.3%	0.8	·
- O=P1(O)Cc2ccccc2-c2ccccc21
→ ·	·	-0.4%	-7	-2.6%	0.8	·
- Cc1nn2c(-c3cccc(NC(=O)CSc4nc5ccccc5o4)c3)nnc2c2ccccc12
→ 22	56µM*	4.6%	5	64%	-0.7	5.2
- Cc1ccccc1S(=O)(=O)Cc1ccc(C(=O)NCCN2CCCCC2C)o1 (configuration not stated)
→ 1	-8%	-1.6%	2	0.9%	-0.7	0.9
- O=C(Nc1cccc(C(F)(F)F)c1)c1csc(-c2ccncc2)n1
→ -2	-5%	-1.5%	14	·	2.1	-0.6
- COCCn1c(N)c(Sc2ccc(Cl)cc2)c(=O)[nH]c1=O
→ 2	-1%	1.0%	-8	·	0.2	0.2
- Fc1c(F)c(F)c(SCn2cc(Br)cn2)c(F)c1F
→ 1	·	7.7%	4	0.5%	-0.8	·
- CC(C)Nc1nc(Nc2ccc(F)cc2)c2sccc2n1
→ ·	·	4.6%	·	-23%	-0.4	·
- COc1ccc(NC(=O)CCNC(=O)c2ccco2)c(OC)c1
→ -1	5%	1.7%	72	·	0.6	-0.6
- CCN(CC)c1nc(-c2ccc(C(=O)NN)cc2)nc(-c2ccc(C(=O)NN)cc2)n1
→ -8	7%	-2.6%	-10	·	-0.3	·
- CC(C)(C)OC(=O)N1CCC(c2c(C(=O)NC3CCN(Cc4ccccc4)CC3)cnn2-c2cccc(F)c2)CC1
→ ·	·	-0.4%	23	1.2%	1.0	·
- NC(=O)c1nsc(C(=O)N(CC(=O)NC2CCCCC2)Cc2ccc(F)cc2)c1N
→ 0	6%	-2.1%	18	·	0.0	-0.3
- O=c1oc(-c2ccccc2F)nc2scc(-c3ccccc3)c12
→ ·	-10%	10%	-14	·	0.0	8.9
- CCOC(=O)SC1=N/C(=C\c2ccc(N(C)C)cc2)C(=O)S1
→ 0	-4%	-1.1%[38.3 µM]	20	1.2%	8.7	?
- COc1ccc2[nH]c(=O)c(CNc3ccccc3OC)cc2c1
→ 17	16µM*	0.2%	-17	·	5.1	-3.2
- FC(F)(F)c1cc(-c2ccccc2)nc(-n2cc(Cl)cn2)n1
→ 3	-25%	0.9%	0	-1.1%	-0.9	0.3
- O=C(NCc1ccccc1Cl)C1CCN(S(=O)(=O)N2CCC3(CC2)OCCO3)CC1
→ -16	24%	3.9%[38.3 µM]	0	-0.9%	-0.7	-0.1
- O=C(CCn1cnc2onc(-c3ccc(F)cc3)c2c1=O)N1CCN(c2ccc(F)cc2)CC1
→ ·	·	3.9%	26	-0.2%	2.4	·
- CCCCC1=CC2=C(c3ccco3)C(=O)C(C)(OC(=O)c3ccc(OC)cc3)C(=O)C2=CN1CCc1ccccn1 (configuration not stated)
→ -28	56µM*!	0.4%	8	0.4%	0.2	?
- C[C@@H]1CN([C@@H](C)CO)C(=O)CCCn2nncc2CO[C@H]1CN(C)C(=O)Nc1cccc2ccccc12
→ ·	·	1.6%	-3	?	-0.6	·
- COc1ccc(-n2c(C)cc(/C=C/c3nc(O)c([N+](=O)[O-])c(=O)[nH]3)c2C)cc1
→ 7	10%	0.4%	-7	·	-0.4	-0.5
- CN(C)/C=C1\N=C(c2ccccc2)OC1=O
→ -15	21%	0.8%	-6	·	-0.1	4.6
- COCCc1nc2ccc(C(=O)N3CCCC(CCCO)C3)cc2o1 (configuration not stated)
→ 3	25%	-1.2%	23	0.1%	-0.9	0.3
- CC(=O)N(c1c(C)n(C)n(-c2ccccc2)c1=O)C1(C(=O)NC2CCCC2)CCCCC1
→ -2	11%	3.2%	9	-5.6%	0.2	0.4
- CCSc1nnc2c(n1)OC(C)(C)Nc1ccccc1-2
→ ?	-3%	-0.8%[38.3 µM]	-16	1.4%	0.3	2.4
- Cc1sc(-c2cccnc2)nc1OC(=O)C1CC1
→ 11	?	-1.3%	0	·	3.2	1.8
- CCc1cc2ccc(C)cc2nc1SCC(=O)Nc1cc(C)on1
→ -9	15%	12%	8	-3.5%	4.3	-4.3
- CCCCNc1nc2ccccc2nc1NS(=O)(=O)c1ccc(F)cc1
→ 6	8%	-1.1%	-18	0.8%	-1.9	-2.4
- CCOc1ccc(CNC(=O)C(=O)c2cn(CC(=O)N3CCOCC3)c3ccccc23)cc1OC
→ 6	15%	2.9%	5	0.5%	0.6	·
- COc1ccc(CNc2nc3ccccc3n2Cc2ccc(Cl)cc2)cc1OC
→ 12	-13%	15%	-7	0.3%	0.4	1.4
- O=C(CO/N=C/c1cccc([N+](=O)[O-])c1)NC1CCCCCC1
→ -5	-1%	-1.9%	2	-1.0%	0.6	2.7
- Cc1ccc(Cc2c(-c3ccco3)nc3ccc(Br)cn23)cc1
→ ·	·	1.5%	1	-9.7%	-0.4	·
- CCS(=O)(=O)n1nc(-c2ccco2)nc1N
→ 4	5%	-0.9%	0	·	0.0	-2.1
- CC(=O)NS(=O)(=O)c1ccc(NC(=O)CSc2ccccc2)cc1
→ 20	15%	-0.3%	-13	-1.1%	-0.5	4.7
- CC(Oc1ccc(Cl)cc1)/C(N)=N/O (configuration not stated)
→ -1	8%	-1.3%	32	·	1.0	-0.7
